Ecoli rRNA inh = inhibitors of bacterial rRNA selective over humanized ribosomes; E. coli WT GFP vs humanized-ribosome RFP mutants, fluorescence, 24 h; active compounds read low; DMSO median 0, no signal -100; GFP signal change (wild-type ribosome), % (concentration not given with the values); 350,000 compounds, 1.6% hits;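 active = significant combined selectivity score with lowered wild-type GFP, culture density cut under 30%, mutant RFP and density less affected; inactive = any of these conditions unmet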; note: one replicate is shown; some compounds called inactive have numbers as strong as hits
Ecoli rRNA inh OD600 = second read-out of Ecoli rRNA inh, no call of its own (marks repeat the call); OD600 change, %; measured here: OD600 growth;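 optical density of the mix in the first replicate; 0 = DMSO median and -100 = no signal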
Ecoli rRNA inh RFP = second read-out of Ecoli rRNA inh, no call of its own (marks repeat the call); RFP signal change, %; measured here: RFP humanized mutant strains;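 first replicate; 0 = DMSO median and -100 = no signal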
* = called active by the depositor. Not all compounds are listed; count on the stated rates, not on these rows.

molecule	Ecoli rRNA inh	Ecoli rRNA inh OD600	Ecoli rRNA inh RFP
CNC[C@H]1OCCCC[C@@H](C)Oc2ccc(NC(=O)c3ccccc3)cc2C(=O)N([C@@H](C)CO)C[C@@H]1C	3.0	4.5	-3.0
O=C(N[C@H]1CC[C@H](CCNS(=O)(=O)Cc2ccccc2)O[C@H]1CO)c1cnccn1	-0.4	-0.6	0.2
CC(C)CC#Cc1ccc([C@H]2[C@H](CO)N3C(=O)CN(C(=O)NC(C)C)C[C@@H]23)cc1	5.9	15.0	0.6
CCCN(C)C[C@H]1OCCCC[C@H](C)Oc2ccc(NS(C)(=O)=O)cc2C(=O)N([C@H](C)CO)C[C@H]1C	1.6	4.0	1.0
COc1ccc(NC(=O)N(C)C[C@@H]2OCc3cn(nn3)CCCC(=O)N([C@H](C)CO)C[C@@H]2C)cc1	0.2	-2.4	-0.6
C[C@@H]1CN([C@H](C)CO)C(=O)c2cc(NC(=O)c3ccccc3)ccc2O[C@@H](C)CCCCO[C@@H]1CN(C)Cc1ccncc1	-4.0	-3.9	1.7
C[C@H](CO)N1C[C@H](C)[C@H](CN(C)CC2CCCC2)Oc2ncc(C#Cc3ccccn3)cc2C1=O	3.4	28.0	-0.4
C/C=C/c1ccc([C@H]2[C@@H](CO)N(CC3CC3)[C@@H]2CNC(=O)NC(C)C)cc1	-2.3	6.7	-3.1
COc1ccc(-c2ccc(C3[C@H]4CNC[C@@H]3N4S(=O)(=O)Cc3ccccc3)cc2)cc1 (some centres undefined)	-4.7	-42.2	0.5
C[C@H](CO)N1C[C@H](C)[C@H](CN(C)Cc2ccccc2)OCc2cn(nn2)CCCC1=O	3.8	-2.0	0.5
C/C=C/c1ccc([C@@H]2[C@H]3CN(C(=O)CN(C)C)CCCCN3[C@H]2CO)cc1	5.3	2.1	-0.7
C[C@@H]1CN([C@H](C)CO)C(=O)c2cc(C#CC3(O)CCCC3)cnc2O[C@@H]1CN(C)C(=O)Cc1cccnc1	0.0	-2.4	-3.6
CCCNC(=O)Nc1ccc2c(c1)C(=O)N(C)C[C@@H](OC)[C@H](C)CN(C(=O)CC)[C@@H](C)CO2	0.6	-1.4	-1.3
COc1ccc([C@@H]2CC=CC[C@@H](C)Oc3ccccc3C(=O)N(C)[C@H](C(C)C)C(=O)N2)c(OC)c1 (mixture of isomers)	-7.9	-19.6	5.9
CCCN(C)C[C@@H]1OCCCC[C@@H](C)Oc2ccc(NC(=O)Nc3c(C)noc3C)cc2C(=O)N([C@H](C)CO)C[C@@H]1C	5.0	6.7	2.9
C[C@@H]1CN([C@@H](C)CO)C(=O)Cc2cc(NS(=O)(=O)c3ccc(Cl)cc3)ccc2O[C@H]1CN(C)C(=O)Nc1ccc2c(c1)OCO2	-1.4	-5.0	-0.6
C[C@@H]1CN(C)C(=O)c2cc(N(C)C)ccc2O[C@@H]1CN(C)C	1.0	3.4	-0.9
C[C@H]1CN([C@@H](C)CO)C(=O)c2ccccc2-c2ccccc2CO[C@@H]1CN(C)C(=O)Nc1ccc2c(c1)OCO2	-2.0	-0.3	-1.7
O=C(Cc1ccccc1)N1C[C@H]2[C@@H](c3ccccc31)[C@@H](CO)N2C(=O)C1CCCC1	2.9	2.5	-1.8
CCCNC(=O)N1[C@H](CO)[C@@H](c2ccc(C3=CCCC3)cc2)[C@H]1CNC(C)=O	-10.2	-5.8	5.3
CC(C)NC(=O)N(C)C[C@H]1Oc2ccc(N)cc2CC(=O)N(C)C[C@H]1C	1.1	1.3	-1.1
COc1ccc2c3c([nH]c2c1)[C@@H](CO)N(C(=O)c1cccnc1)CC31CN(C(=O)Nc2cccc(F)c2)C1	-2.8	-4.4	0.1
CCCN(C)C[C@H]1OCCCC[C@H](C)Oc2ccc(NC(=O)CCC(F)(F)F)cc2C(=O)N([C@@H](C)CO)C[C@H]1C	0.3	-1.2	-2.8
CCC(=O)N1C[C@H](C)[C@@H](OC)CN(C)C(=O)c2cc(NC(=O)c3cc(C)on3)ccc2OC[C@H]1C	2.5	-8.9	-1.7
C[C@H](CO)N1C[C@H](C)[C@H](CN(C)Cc2ccc(C(F)(F)F)cc2)Oc2ccc(NS(=O)(=O)c3ccc(Cl)cc3)cc2C1=O	2.7	-8.9	8.0

4 compounds out of the list, arranged by heavy-atom count, ascending:
molecule	Ecoli rRNA inh	Ecoli rRNA inh OD600	Ecoli rRNA inh RFP
CC(C)NC(=O)N(C)C[C@H]1Oc2ccc(N)cc2CC(=O)N(C)C[C@H]1C	1.1	1.3	-1.1
CCCNC(=O)Nc1ccc2c(c1)C(=O)N(C)C[C@@H](OC)[C@H](C)CN(C(=O)CC)[C@@H](C)CO2	0.6	-1.4	-1.3
COc1ccc([C@@H]2CC=CC[C@@H](C)Oc3ccccc3C(=O)N(C)[C@H](C(C)C)C(=O)N2)c(OC)c1 (mixture of isomers)	-7.9	-19.6	5.9
C[C@@H]1CN([C@H](C)CO)C(=O)c2cc(C#CC3(O)CCCC3)cnc2O[C@@H]1CN(C)C(=O)Cc1cccnc1	0.0	-2.4	-3.6

Following part
molecule	Ecoli rRNA inh	Ecoli rRNA inh OD600	Ecoli rRNA inh RFP
CCC(=O)N1CC2(C1)CN(C(=O)NC1CCCC1)[C@@H](CO)c1c2c2ccc(OC)cc2n1C	-0.4	3.5	-0.9
CN1c2ccc(-c3cccc(C#N)c3)cc2[C@@H]2[C@@H](CCN2C(=O)CC2CC2)[C@@H]1CO	-22.1	-21.9	4.0
CNC[C@@H]1OCc2cnnn2CCCC(=O)N([C@@H](C)CO)C[C@@H]1C	0.9	0.4	-0.9
COc1ccc2c3c(n(C)c2c1)[C@@H](CO)NCC31CCN(C(=O)CC2CC2)CC1	2.1	-2.7	-0.7
C[C@@H]1COCn2nncc2CCCC(=O)N1	0.2	-5.0	2.3
Cc1noc(C)c1NC(=O)Nc1ccc2c(c1)C(=O)N([C@@H](C)CO)C[C@@H](C)[C@@H](CN(C)Cc1ccc(Cl)c(Cl)c1)O2	-4.9	-15.2	2.0
C[C@H]1CN([C@@H](C)CO)S(=O)(=O)c2ccc(-c3ccc(F)cc3)cc2O[C@@H]1CN(C)Cc1cccc(F)c1	4.4	7.0	-0.5
C/C=C/c1cnc2c(c1)C(=O)N([C@@H](C)CO)C[C@@H](C)[C@@H](CN(C)C(=O)C1CC1)O2	6.4	19.0	-4.5
CCC(=O)Nc1ccc2c(c1)OC[C@H](C)N(CC1CCCCC1)C[C@H](C)[C@@H](OC)CN(C)C2=O	-2.6	-8.9	3.3
C[C@@H]1CN(C)C(=O)c2cccnc2O[C@H]1CN(C)S(C)(=O)=O	-2.9	-2.9	-0.3
CC(=O)N1CC[C@@H]2[C@H]1c1cc(-c3ccccc3)ccc1N(C)[C@H]2CO	4.2	13.2	3.7
C[C@H](CO)N1C[C@H](C)[C@H](CN(C)C(=O)C2CC2)Oc2ncc(-c3cccc(F)c3)cc2C1=O	1.1	9.7	-1.2
O=C1N[C@@H](Cc2ccccc2)COCc2cn(nn2)CC[C@@H]1Cc1cccc(Cl)c1	0.8	5.0	-2.7
CN1C(=O)c2cc(NC(=O)Nc3ccccc3Cl)ccc2OC[C@@H]2O[C@@H](CC(=O)NCCCN3CCOCC3)CC[C@H]21	3.7	-4.0	-1.1
CNC[C@@H]1OCCCC[C@H](C)Oc2ccc(NC(=O)Nc3ccc(F)cc3)cc2C(=O)N([C@H](C)CO)C[C@H]1C	-2.5	-7.6	-0.5
CNC[C@@H]1Oc2ccccc2C(=O)N(C)C[C@H]1C	0.7	4.8	-0.9
C[C@H]1CNC(=O)[C@@H](Cc2ccc(C(F)(F)F)cc2)CCn2nncc2COC1	2.1	11.3	2.3
CO[C@@H]1CN(C)C(=O)c2cc(NS(C)(=O)=O)ccc2OC[C@H](C)N(C(=O)NC(C)C)C[C@H]1C	1.0	3.7	-1.2
CO[C@H]1CN(C)C(=O)c2ccc(NC(=O)Nc3ccccc3)cc2OC[C@@H](C)N(C(=O)CN(C)C)C[C@@H]1C	2.8	6.3	-1.9
CO[C@@H]1CN(C)C(=O)c2ccc(NC(=O)c3ccc(F)cc3)cc2OC[C@H](C)N(C(=O)CN(C)C)C[C@@H]1C	0.7	7.1	0.1
COc1ccc(-c2cnc3c(c2)C(=O)N([C@H](C)CO)C[C@H](C)[C@H](CN(C)C(=O)C2CCCCC2)O3)cc1	-0.6	3.0	3.0
C[C@H]1C/C=C\C[C@@H](c2ccc3c(c2)OCO3)NC(=O)[C@H](c2ccccc2)CC(=O)N1	-0.6	4.2	-0.4
CC(=O)N(C)C[C@@H]1Oc2cc(C#CC3CC3)ccc2S(=O)(=O)N([C@H](C)CO)C[C@@H]1C	-2.9	6.6	-1.1
C[C@H]1CN([C@@H](C)CO)C(=O)c2cccc(NS(=O)(=O)c3ccc(Cl)cc3)c2O[C@@H]1CN(C)S(=O)(=O)c1cn(C)cn1	-2.2	0.9	-1.5
N#C[C@@H]1[C@H](c2ccc(C#Cc3cccc(F)c3)cc2)[C@H](CO)N1C(=O)C1CCOCC1	-2.3	-6.0	4.2
COc1ccc2c3c([nH]c2c1)[C@H](CO)N(C(=O)C1CC1)CC31CCN(C(=O)c2ccncc2)CC1	0.6	11.4	-1.7
C[C@@H]1CN([C@@H](C)CO)S(=O)(=O)c2ccc(C#Cc3ccncc3)cc2O[C@@H]1CN(C)C(=O)Nc1ccc2c(c1)OCO2	-7.5	-14.8	-3.4
COc1ccc2c3c(n(C)c2c1)[C@@H](CO)N(C(=O)CN(C)C)CC31CN(Cc2cccnc2)C1	-1.2	0.6	0.9
C[C@H]1CN([C@@H](C)CO)S(=O)(=O)c2ccc(C#CC3CC3)cc2O[C@H]1CN(C)C(=O)Nc1cc(F)ccc1F	-1.7	7.2	-1.1
C[C@H]1CC=CC[C@@H](c2ccc(F)cc2)NC(=O)[C@H](C)N(C)C(=O)c2ccccc2O1 (mixture of isomers)	-5.7	-7.3	0.1
C[C@@H]1CN([C@H](C)CO)S(=O)(=O)c2ccc(C#Cc3ccccc3F)cc2O[C@H]1CN(C)C(=O)Cc1ccncc1	0.5	-14.4	16.2
COc1ccc2c3c(n(C)c2c1)[C@H](CO)N(C(=O)CC1CC1)CC31CCN(C(=O)C2CCC2)CC1	-3.2	3.0	-0.4
CCCC(=O)Nc1ccc2c(c1)C(=O)N(C)C[C@@H](OC)[C@@H](C)CN(C(=O)c1ccncc1)[C@@H](C)CO2	2.1	5.3	-1.2
CO[C@H]1CN(C)C(=O)c2ccc(NC(=O)c3cnccn3)cc2OC[C@H](C)N(C)C[C@H]1C	1.7	-1.7	0.1
CNC[C@H]1Oc2c(NC(=O)NC3CCCCC3)cccc2C(=O)N([C@@H](C)CO)C[C@@H]1C	0.5	1.7	-0.8
CCCNC(=O)N[C@H]1C=C[C@@H](CC(=O)NCCc2ccccc2)O[C@H]1CO	-0.9	-3.0	-0.7
O=C(NCC1CCCCC1)[C@@H]1[C@@H](CO)[C@@H]2Cn3c(cccc3=O)[C@H]1N2C(=O)c1cccnc1	0.7	6.9	-1.8
C[C@@H]1CC=CC[C@H](c2cccc(Cl)c2)NC(=O)[C@H](C)N(C)C(=O)c2ccccc2O1 (mixture of isomers)	-14.1	-50.0	0.8
O=C1[C@H](Cc2ccc(C(F)(F)F)cc2)CCn2nncc2COC[C@@H]2CCCCN12	-1.8	-2.2	-0.9
COCC(=O)N(C)C[C@H]1Oc2ncc(C#CC(C)(C)O)cc2C(=O)N([C@@H](C)CO)C[C@H]1C	-1.5	-2.1	-1.3
CN(C[C@H]1[C@@H](c2ccccc2)[C@H](CO)N1C(=O)C1CC1)C(=O)c1ccccn1	1.8	2.1	0.1
CCC(=O)Nc1ccc2c(c1)C(=O)N(C)C[C@H](OC)[C@H](C)CN(C(=O)CN(C)C)[C@@H](C)CO2	0.4	-2.6	1.6
C[C@@H]1CCCCO[C@H](CN(C)C)[C@@H](C)CN([C@@H](C)CO)C(=O)c2cc(NC(=O)c3ccncc3)ccc2O1	6.6	5.5	-0.6
CN1C(=O)c2cc(NC(=O)C3CCCCC3)ccc2OC[C@@H]2O[C@@H](CC(=O)NC3CCCC3)CC[C@@H]21	1.5	13.5	-0.1
COc1ccc(S(=O)(=O)N(C)C[C@@H]2OCCCC[C@@H](C)Oc3ccc(N(C)C)cc3C(=O)N([C@H](C)CO)C[C@@H]2C)cc1	-1.4	-4.1	-0.3
C[C@H]1CN([C@@H](C)CO)C(=O)c2cccc(NC(=O)c3cnccn3)c2O[C@H]1CN(C)S(=O)(=O)c1ccc(Cl)cc1	-6.7	-1.3	2.1
CO[C@@H]1CN(C)C(=O)c2ccc(NS(C)(=O)=O)cc2OC[C@@H](C)N(C(=O)c2ccc3c(c2)OCO3)C[C@H]1C	0.5	-0.9	-0.3
C[C@H]1CCCCO[C@@H](CN(C)Cc2ccc(C(=O)Nc3ccccc3N)cc2)[C@@H](C)CN([C@@H](C)CO)C(=O)c2cc(N(C)C)ccc2O1	-1.2	-2.9	-2.7

Screening results from PubChem.
